From PubChem
beta cell repl: inducers of MIN6 beta-cell proliferation, primary screen, ATP luminescence, uHTS; MIN6 cells proliferation, ATPlite luminescence, 48 h; cells starved in 0.2% serum; 100% = growth in 10% serum; proliferation, % at 10 µM; 0.29% of 330,000 active;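 active = compounds whose signal lies at least 3.5 SD above the mean of all wells on their plate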;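 note: 0% = DMSO-treated cells in low-serum medium and 100% = 10% serum control; some compounds called inactive have numbers as strong as hits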
Active calls of the source: *.

structure | beta cell repl
O=c1oc2cc(O)ccc2s1 | -6
O=C(O)c1cccnc1SCCc1ccccc1 | -1
COc1ccc(Cl)cc1C(=O)NCCc1ccc(S(=O)(=O)NC(=O)NC2CCCCC2)cc1 | -4
COc1ccc(OC)c(S(=O)(=O)Nc2cnc3ccccc3c2)c1 | -1
CCN(CC)CC(=O)Nc1c(C)cc(C)cc1C | -1
COc1ccc(N2CSC3=C(C#N)C(c4cccs4)CC(=O)N3C2)cc1 (configuration not stated) | -1
COc1ccc(/C=C/C(=O)O)cc1OC | 1

Exported field by field: entries from further up
COc1ccc(Cl)cc1C(=O)NCCc1ccc(S(=O)(=O)NC(=O)NC2CCCCC2)cc1
  beta cell repl: -4

COc1ccc(OC)c(S(=O)(=O)Nc2cnc3ccccc3c2)c1
  beta cell repl: -1

CCN(CC)CC(=O)Nc1c(C)cc(C)cc1C
  beta cell repl: -1

This is a subset; most or all hits stand in other tables.
